# High-throughput results: PubChem BioAssay, National Center for Advancing Translational Sciences (NCATS)
# Six1-Eya2 inh = blocks human Six1 binding to Eya2; Q15475+O00167; AlphaScreen GST-Six1/His-Eya2 binding, biochemical; stronger effect = lower value; control for the full effect not named in the record; activity change, % (concentration not given with the values); 360,000 tested, 0.56% active; AID 651725; in the data active = activity change below about -65%; inconclusive = about -30% to -65%; inactive = above about -30%; also: % is scaled to controls: 0 for no effect and ±100 for the full control effect
#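 GST-Six1 + His-Eya2 (5X stock: 250/500 nM); Tris pH 8.0, 300 mM NaCl, 0.05% BSA, 0.02% Tween 20; GSH donor/Ni acceptor beads; 1 h 37 °C dark; AlphaScreen readout.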
# TRPML1 agonist = human mucolipin-1 channel agonism | AID 624414 | Q9GZU1 | activation, % (no concentration beside the values) | 410,000 tested, 0.12% active | TRPML1-expressing cells, Ca2+ dye fluorescence, FDSS; host cell line not named in the record; reference of the full effect not given here; in the data active = activation above about 50%; inconclusive = about 30% to 50%; inactive = below about 30%; also: 0% is about no effect; the text of the record puts the active cut at 80%
# Target sequence (Q9GZU1 whole entry, looked up): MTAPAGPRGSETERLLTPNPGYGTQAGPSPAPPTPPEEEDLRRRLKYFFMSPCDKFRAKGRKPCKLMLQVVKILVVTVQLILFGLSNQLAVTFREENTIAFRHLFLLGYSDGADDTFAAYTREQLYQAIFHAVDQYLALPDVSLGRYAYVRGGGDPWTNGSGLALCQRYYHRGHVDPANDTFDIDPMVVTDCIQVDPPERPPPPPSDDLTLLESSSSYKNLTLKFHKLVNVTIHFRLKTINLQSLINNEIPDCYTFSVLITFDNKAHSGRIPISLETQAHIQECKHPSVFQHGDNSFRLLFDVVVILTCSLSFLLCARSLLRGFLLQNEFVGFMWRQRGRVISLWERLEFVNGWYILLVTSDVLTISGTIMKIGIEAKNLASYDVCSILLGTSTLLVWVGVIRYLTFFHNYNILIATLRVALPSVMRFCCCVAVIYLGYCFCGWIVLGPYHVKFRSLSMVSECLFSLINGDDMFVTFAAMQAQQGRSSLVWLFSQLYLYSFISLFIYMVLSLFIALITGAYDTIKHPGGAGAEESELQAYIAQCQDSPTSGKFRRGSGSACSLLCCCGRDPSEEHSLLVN
#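 Kinetic FDSS Ca2+ read in Tet-induced TRPML1-DL cells (ABD Ca8 dye plus quencher, 45-90 min RT loading): baseline, then compound, then 110 s agonist window; EC80 agonist 54-4 at 4uM final added afterwards for a 110 s antagonist window.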
# D2 potentiator = potentiates the human D2 dopamine receptor allosterically | potentiation, % (concentration not given with the values) | P14416 | AID 624464 | DiscoveRx D2 beta-arrestin cells, luminescence, 90 min; 100% = 57 uM dopamine signal | 360,000 tested, 0.23% active; active = potentiation of 50% or more; inconclusive = 30% to 50%; inactive = 30% or less;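 also: compound concentration not given in the record; tested on top of an EC20 dose of dopamine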
# Target sequence (P14416 whole entry, looked up): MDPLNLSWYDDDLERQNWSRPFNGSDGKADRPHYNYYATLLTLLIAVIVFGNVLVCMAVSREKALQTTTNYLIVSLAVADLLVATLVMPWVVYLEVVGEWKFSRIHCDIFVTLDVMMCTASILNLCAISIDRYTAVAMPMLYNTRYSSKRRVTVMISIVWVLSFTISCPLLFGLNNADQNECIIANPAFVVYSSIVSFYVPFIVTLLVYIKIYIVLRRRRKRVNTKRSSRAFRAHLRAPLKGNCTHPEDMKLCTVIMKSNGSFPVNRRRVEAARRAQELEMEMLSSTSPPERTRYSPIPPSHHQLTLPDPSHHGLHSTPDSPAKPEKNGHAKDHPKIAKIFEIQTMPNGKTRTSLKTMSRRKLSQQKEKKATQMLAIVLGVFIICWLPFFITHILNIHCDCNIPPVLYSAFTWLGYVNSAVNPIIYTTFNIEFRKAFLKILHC
#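 D2 cells co-treated with compound plus 50 nM dopamine (EC20) for 90 min at 37 deg C to detect potentiation. Beta-arrestin recruitment was read as enzyme-fragment luminescence after 1 h at ambient temperature. Full response was set by 57 uM dopamine.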
# CtBP-E1A blk = inhibitors of CtBP/E1A interaction | activity change, % (test concentration not listed) | AlphaScreen GST-E1A/His-CtBP binding, 1536-well; stronger effect = lower value; control for the full effect not named in the record | 340,000 tested, 0.49% active | AID 651724; in the data active means activity change below about -65%; inconclusive means about -30% to -65%; inactive means above about -30%; also: % is scaled to controls: 0 for no effect and ±100 for the full control effect; compound concentration not given in the record
#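 Steps: dispense buffer (Tris pH 8.0, NaCl 300 mM, TCEP 1 mM, BSA, Tween 20); add 5X protein mix (GST-E1A, His-CtBP, 125 nM each); pin 23 nL compound; 2 h at 37 °C, dark; add 5X beads (50 ug/mL); 1 h; read.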
# PINK1 modulator = modulators of PINK1 expression | PINK1 immunofluorescence, high-content cytometry, 24 h | Potency, µM (titrated, usually from 76.6 µM), inactives show at the highest dose activation (PINK1 increase), hits mostly activators | 410,000 tested, 0.2% active; active = well fitted activation curve with a large enough effect; inconclusive = small, poorly fitted or top-dose-only effect; inactive = flat fitted curve, though single readings scatter; cell line not stated here;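 also: potency is read from the fitted curve at half-maximal effect; % of control where 0% means no effect; nearly all actives have a fitted effect of over 65% in size; a mitochondrial uncoupler was the plate control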
#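 Measures PINK1 amount and localization on or inside mitochondria by immunofluorescence. Stable cells get compounds at 5 concentrations for 24 hours before fixation and staining; CCCP controls included.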
# D2 ag = agonists of human D2 dopamine receptor (beta-arrestin); P14416; 360,000 tested, 0.084% active; AID 624465; activation, % (test concentration not listed); DiscoveRx PathHunter D2 beta-arrestin, luminescence, 90 min; 100% = 57 uM dopamine signal; in the data active = activation above about 40%; inconclusive = about 15% to 40%; inactive = below about 15%; also: compound concentration not given in the record; the text of the record calls up to 30% inactive
#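 Agonist mode: compounds alone added to overnight-plated D2 PathHunter cells for 90 min at 37 C, with 57 uM final dopamine (EC100) defining full response. Beta-arrestin recruitment detected by chemiluminescent reagent, read after 1 h at ambient temperature.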
# The depositor's hits bear a star; ? = inconclusive; . = not tested or not shown; & = joins results of further samples; [ ] = remark or other dose. Compounds were not picked by outcome, and some 1.3% of all compounds hit somewhere here.
nr	smiles	Six1-Eya2 inh	TRPML1 agonist	D2 potentiator	CtBP-E1A blk	PINK1 modulator	D2 ag
1	O=C(/C=C/c1ccc(Cl)c([N+](=O)[O-])c1)Nc1ccc(NC(=O)c2ccco2)cc1	10	1.9	-2	-16	1.2%	-3.5
2	NNC(=O)c1ccc(CN2CCCCC2)o1	-1	0.0	-23	3	-1.1%	2.7
3	CC(C)NC(=O)C1CCN(C(=O)c2ccc(-c3ccccc3)cc2)CC1	4	1.1	-7	0	7.2%	-2.1
4	O=C(Nn1c(C2CCCCC2)nc2ccccc2c1=O)c1ccc([N+](=O)[O-])cc1Cl	-16	0.1	3	-22	4.6%	9.6
5	COc1ccc(CCNC(=O)COC(=O)C2COc3ccccc3O2)cc1 (stereo unspecified)	-1	-0.4	-3	.	-0.7%	-0.8
6	CC(=O)N1CC=CC1(CC(C)C)C(=O)NCc1cc(F)cc(C(F)(F)F)c1 (stereo unspecified)	0	-0.2	0	7	1.1%	-2.9
7	COc1ccc(-c2c(C#Cc3ccsc3)c3cc(-c4ccc(OC)c(F)c4)ccc3n2C)cc1	6	0.9	-8	.	0.1%	-4.0
8	CCOc1ccccc1N(CC(=O)Nc1c(C)n(C)n(-c2ccccc2)c1=O)S(=O)(=O)c1ccccc1	-2	0.6	-5	.	1.1%	3.3
9	CCC(C)NCCOCCOc1ccc(Cl)cc1Br (stereo unspecified)	-19	-0.3	-41	-4	-1.2%	-4.8
10	CC(C)OC(=O)c1cccnc1N1CCN(c2cccc(Cl)c2)CC1	0	0.2	-2	.	5.2%	-2.0
11	Cc1nnc(NC(=O)CSc2nnc(CCc3nc4ccccc4[nH]3)n2C)s1	-3	3.3	-11	-7	-2.0%	-2.0
12	COc1ccc(NC(=O)c2cccc3ccccc23)cc1OC	26	-0.8	0	24	-0.1%	4.1
13	Cc1cc(C)c(N(CC(=O)NC(C)(C)C)C(=O)CNC(=O)c2cccs2)c(C)c1	17	-0.4	6	-16	5.0%	0.4
14	COc1ccc(C2N(C(=O)N(C)C)CCN2S(=O)(=O)c2ccc(OC)cc2)cc1 (stereo unspecified)	3	0.3	-5	0	-0.6%	-2.1
15	CCSc1nnc(NC(=O)C2CCN(C(=O)c3ccc(F)cc3)CC2)s1	0	0.3	3	-1	3.2%	3.4
16	O=C(CN(C(=O)CNS(=O)(=O)c1ccccc1)C1CCCC1)NCC1CCCO1 (stereo unspecified)	5	-0.6	13	3	-0.4%	-1.7
17	COc1cc(NC(=O)c2ccc([N+](=O)[O-])o2)ccc1NC(=O)c1ccco1	-1	0.0	2	.	2.1%	1.0
18	Cn1ccs/c1=N\S(=O)(=O)c1ccc(F)cc1	6	0.8	-1	5	1.2%	-3.4
19	CCCC(=O)NCCCc1nc2ccccc2n1CC	-2	0.1	-3	-1	1.6%	-2.1
20	CC(C)C[C@@H](CN=[N+]=[N-])N1CCN(Cc2ccccc2)CCC1=O	2	-0.9&-0.8	-1	8	-0.9%	-0.4
21	C=C(C)Cn1c(=O)c2c(nc3n2CC(C)CN3Cc2ccccc2)n(C)c1=O (stereo unspecified)	-2	-0.7	-20	2	1.0%	-2.9
22	Cc1ccc(C(c2sc3nc(C)nn3c2O)N2CC(C)OC(C)C2)cc1 (stereo unspecified)	-1	0.0	9	2	-0.4%	-1.8
23	Cn1c(N)c(C(=O)CSc2nc3ccccc3c(=O)n2Cc2ccccc2)c(=O)n(C)c1=O	6	0.5	1	0	4.9%	-1.1
24	Cc1cc(NC(=O)Nc2cccc(Cl)c2)n(-c2ccccn2)n1	-15	-0.5	-8	-15	?	-1.4
25	CCOC(=O)c1ccc(NC(=S)Nc2ccccn2)cc1	2	1.7	-5	-5	-0.7%	-3.5

# Four entries from above, field by field.
20) CC(C)C[C@@H](CN=[N+]=[N-])N1CCN(Cc2ccccc2)CCC1=O
  Six1-Eya2 inh = 2; TRPML1 agonist = -0.9&-0.8; D2 potentiator = -1; CtBP-E1A blk = 8; PINK1 modulator = -0.9%; D2 ag = -0.4
21) C=C(C)Cn1c(=O)c2c(nc3n2CC(C)CN3Cc2ccccc2)n(C)c1=O (stereo unspecified)
  Six1-Eya2 inh = -2; TRPML1 agonist = -0.7; D2 potentiator = -20; CtBP-E1A blk = 2; PINK1 modulator = 1.0%; D2 ag = -2.9
22) Cc1ccc(C(c2sc3nc(C)nn3c2O)N2CC(C)OC(C)C2)cc1 (stereo unspecified)
  Six1-Eya2 inh = -1; TRPML1 agonist = 0.0; D2 potentiator = 9; CtBP-E1A blk = 2; PINK1 modulator = -0.4%; D2 ag = -1.8
23) Cn1c(N)c(C(=O)CSc2nc3ccccc3c(=O)n2Cc2ccccc2)c(=O)n(C)c1=O
  Six1-Eya2 inh = 6; TRPML1 agonist = 0.5; D2 potentiator = 1; CtBP-E1A blk = 0; PINK1 modulator = 4.9%; D2 ag = -1.1

# Continued:
nr	smiles	Six1-Eya2 inh	TRPML1 agonist	D2 potentiator	CtBP-E1A blk	PINK1 modulator	D2 ag
26	CC(NC(=O)CCc1nnc(-c2ccccc2)o1)c1ccccc1 (stereo unspecified)	6	1.1	-5	.	-1.5%	0.5
27	CC(=O)c1ccc(NC(=O)C2=CC(c3ccco3)=NS(=O)(=O)N2C)cc1	-5	-1.0	-2	-10	0.3%	0.3
28	NS(=O)(=O)c1cc(C(=O)N2CCc3ccccc32)c(Cl)cc1Cl	-1	0.2	-11	3	.	-3.5
29	Cc1ccnc(SCc2nc3ccccc3s2)n1	11	-0.3	-10	8	1.9%[38.3 µM]	-3.4
30	COc1ccc(N(CC(=O)N2CCN(Cc3ccccc3)CC2)S(=O)(=O)c2ccccc2)cc1	0	0.4	-36	-5	4.5%	-4.2
31	CCN(CC)c1ccc(N)cc1	-20	0.3	-7	?	14µM*	7.3
32	Cc1oc2cc(O)cc(O)c2c(=O)c1-c1ccc2c(c1)OCCCO2	-4	-0.2	-1	-10	.	-1.3
33	COc1ccc(S(=O)(=O)N(C)CC(=O)Nc2cccc(C(C)=O)c2)cc1	0	-0.1	-12	12	.	-1.8
34	CCOC(=O)[C@@H]1[C@H]2COc3ccccc3[C@@H]2N2C(=O)N(c3cccc(F)c3)C(=O)[C@@]12C	4	0.0	-5	-2	0.0%	-8.2
35	Cn1c(NCCCN2CCOCC2)nc2c1c(=O)n(Cc1ccc(Cl)cc1)c(=O)n2C	-6	1.4	-3	-7	4.0%[38.3 µM]	2.6
36	C/C(CC(=O)N1CCCC1)=N\NC(=O)c1cc2ccccc2cc1O	-7	-0.9	-10	.	-1.7%	-2.4
37	CC1CCN(CCCNC(=O)CCCNC(=O)Cn2cnc3sc4c(c3c2=O)CCCC4)CC1	-1	0.6	-16	-21	-4.5%	-3.7
38	O=C(CNS(=O)(=O)c1ccc(Br)s1)NCc1ccc(F)cc1	-3	-0.7	-4	-2	2.9%	0.6
39	CC(C)c1ccc(/C=C(/C#N)c2nnc(NC(=O)c3ccccc3)s2)cc1	-3	1.0	-2	9	14%	-0.7
40	CC1CCCCN1Cc1ccc(N(C)C)cc1 (stereo unspecified)	-2	-0.1	2	3	.	1.1
41	CSc1ccccc1C(=O)NCCOc1cccc(C)c1	15	-0.1	-6	-7	-0.1%	-1.0
42	COc1cc2c(cc1OC)C(C(=O)NCCN1CCOCC1)C1c3ccccc3CCN1C2=O (stereo unspecified)	?	-0.4	23	11	0.0%	-3.2
43	CCCCn1c(Nc2ccccc2)nc2ccccc21	12	1.8	-8	-11	-4.2%	0.6
44	O=C(Cc1cccc(NC(=O)C2CCN(C(=O)C3CC3)CC2)c1)Nc1cccc(C(=O)N2CCOCC2)c1	0	-0.4	-6	3	0.5%	-3.4
45	Cc1cc(O)ccc1N=Cc1c(C(F)(F)F)[nH][nH]c1=O	-5	-0.2	1	.	-0.3%	?
46	O=C(CCc1nnc(CCc2c[nH]c3ccccc23)o1)NC1CCC1	0	.	-7	3	0.7%	-1.0
47	CCOC(=O)Cc1csc(N/C(=N/S(=O)(=O)c2cc(Br)ccc2OCC)c2ccccc2)n1	-7	0.4	9	-14	3.7%	-0.9
48	N#Cc1cccc(NC(=O)Cn2cnc(S(=O)(=O)N3CCOCC3)c2)c1	1	0.0	-14	10	0.4%	-3.4
49	Cc1ccc(OCCC(=O)Nc2ccc(F)c(Cl)c2)cc1	6	0.6	3	2	9.3%	-0.7
50	O=C(c1ccc([N+](=O)[O-])cc1)N(C1=NCCCCS1)c1ccccc1	5	0.0	-14	2	2.7%	-2.7
51	CCOc1ccc(NC(=O)CNC(=O)c2nn(-c3ccc(OC)cc3)c(=O)c3ccccc23)cc1	2	0.9	7	5	11%	-1.1
52	C/C(CC(=O)NC1CCCCC1)=N\NC(=O)c1ccccc1C	16	-0.6	-1	-8	1.6%	-1.7
53	CC(C)NC(=O)NC(=O)COC(=O)c1ccc(OC(F)(F)F)cc1	6	4.6	-10	-2	11%	2.3
54	CC1CCc2c(sc3ncnc(NCc4cccnc4)c23)C1 (stereo unspecified)	-1	0.7	-19	.	-1.8%	4.3
55	Cc1ccc(NC(=O)CN2C(=O)NC(C)(C3CC3)C2=O)c(C)c1 (stereo unspecified)	28	-0.4	3	0	-0.3%	-1.7
56	Cc1nnsc1SCC(=O)O	1	0.4	-13	-2	-3.2%	-1.8
57	CC(=O)c1c(C)nc(-c2cccc([N+](=O)[O-])c2)n1O	2	-0.5	-50	-2	-0.4%	-11
58	Oc1ccc(/C=N/Nc2cc(N3CCOCC3)nc(N3CCOCC3)n2)cc1O	-24	-0.7	18	-15	-1.0%	6.2
59	CN(CC(=O)Nc1cccc2ccccc12)c1ccc(S(=O)(=O)N2CCOCC2)cn1	-2	1.0	-9	-2	7.8%	-0.4
60	CC(=O)OC[C@H]1O[C@@H](O[C@H]2C[C@]3(C)C(C[C@@H](O)C4C([C@]5(C)CC[C@@H](C(C)(C)O)O5)CC[C@]43C)[C@@]3(C)CC[C@H](O)C(C)(C)C23)[C@H](O[C@@H]2O[C@@H](C)[C@H](O)[C@@H](O)[C@H]2O)[C@@H](O)[C@@H]1O (stereo partly specified)	-4	0.2	3	8	-0.2%	0.7
61	CCCCN(CC(=O)NCc1ccc(F)cc1)C(=O)c1ccco1	14	-0.1	-8	.	-1.6%	-7.4
62	c1ccc(-c2nc(C3CCCCC3)no2)cc1	19	2.3	-24	10	-0.1%	-0.1
63	COc1ccc(N2C(=O)C3C(c4ccc(OC)cc4O)NC(Cc4ccccc4)(C(=O)O)C3C2=O)cc1 (stereo unspecified)	9	-0.8	-1	2	1.1%	-3.2
64	COc1ccc(NS(=O)(=O)c2cc(NC(=O)C3=NN(c4ccccc4)C(=O)CC3)ccc2C)cc1	-5	2.0	-23	-9	-1.5%	0.4
65	COc1ccc2nc(NCCO)[nH]c2c1	0	0.0	-8	5	3.3%	-1.6
66	O=C(CSc1ccc(-c2ccncc2)nn1)N1CCCC1	3	-0.5	0	9	-0.2%	-6.9
